Screening results (PubChem BioAssay)
Mtb hypoxia inh = Mtb hypoxia fluorescent reporter inhibition; actives 0.1% (n = 300,000); AID 1159583; M. tuberculosis hypoxia-regulated fluorescent reporter, fluorescence; fluorescence inhibition, % (concentration not given with the values);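 active means 35 to 45% if threefold the growth effect, above 45% if 1.5-fold the growth effect; inactive means the rest, general growth blockers included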;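 further: wells of about 50 µL received 100 nL stock; 0% = vehicle wells and 100% = reference inhibitor wells; whole bacteria with a GFP reporter of the hypoxia response; strong numbers were not always called active; many hits fall short of the cut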
Autofluor counter = compound fluorescence in toxin protease inhibitor counterscreen; compound autofluorescence counterscreen, microsphere flow cytometry; hits give high values; AID 624483; actives 3.1% (n = 360,000); fluorescence intensity (no concentration beside the values);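 active means at least 3 SD above the mean of all compounds, about 16000 in these data; inconclusive means too few beads counted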;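 further: 100 nL of 1 mM stock went into each well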
PrP 5UTR inh = suppresses PrP 5' UTR mRNA reporter expression; inhibition, % (concentration not given with the values); cell-based PrP 5' UTR mRNA reporter, plate reader; actives 0.35% (n = 340,000);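 active means every replicate at 50% or more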;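 further: 0 = median of the neutral control wells; tested in H4 reporter cells; numbers are from one replicate; inactives centre near -14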
BJeLR lethal = kills HRASV12-expressing BJeLR cells; actives 0.17% (n = 300,000); AID 1554; inhibition, % (no concentration beside the values); BJeLR (HRASV12) viability, CellTiter-Glo ATP luminescence, 48 h; reference of the scale not given here;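 active means replicate mean above 50%; inconclusive means above 50% but judged a plate artefact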;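 further: 50 nL library stock added to about 25 µL; numbers are from one replicate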
Sa ugtP lethal = kills S. aureus RN4220 lacking UgtP; S. aureus RN4220 ugtP deletion, OD600 growth, 16 h; some inactives read as strong as hits; growth inhibition, % (concentration not given with the values); actives 0.54% (n = 330,000); AID 1259309;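 active means z-score under -3 and OD600 up to 0.15 on both plates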;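 further: plate controls were untreated wells for no effect and antibiotic for full effect; wells of about 80 µL received 100 nL stock; the first replicate is given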
RN4220 kill = kills Staphylococcus aureus RN4220. S. aureus RN4220 growth, OD600, 16 h. inhibition, % (concentration not given with the values). actives 0.33% (n = 330,000). AID 1259311;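 active means z-score of -3 or lower and OD600 up to 0.18 on both plates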;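 further: plate controls were untreated cells for no effect and reference antibiotic for full effect; stock transfer was 100 nL into about 80 µL; one replicate is shown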
Mtb hypoxia inh growth = recorded beside Mtb hypoxia inh, whose call it bears; growth inhibition, %; measured here: M. tuberculosis growth (absorbance);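 0% = vehicle and 100% = reference antibiotic; read after six days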
An asterisk follows results filed as active; ? = inconclusive; . = no result given.

Compound,Mtb hypoxia inh,Mtb hypoxia inh growth,Autofluor counter,PrP 5UTR inh,BJeLR lethal,Sa ugtP lethal,RN4220 kill
N#CCC(=O)Nc1ccc(C(=O)OCC(=O)NC(=O)NCc2ccco2)cc1,6,3,2875,-11,.,2,4.8
COCCN(CC1CCCN(C2Cc3ccccc3C2)C1)C(=O)c1cccs1 (stereo not given),1,-4,5904,-9,5,-1,-1.1
O=C(NN1C(=O)C2C3C=CC(C3)[C@H]2C1=O)c1cccnc1 (stereo not given in full),0,-6,2430,-12,4,2,-0.2
Cc1nc2nc(CCNS(=O)(=O)c3ccc(Cl)cc3)cn2nc1C,.,.,5481,-24,5,.,.
CCc1c(O)nc(SCC(=O)NC(C)(C)C)n(-c2ccccc2)c1=O,.,.,4663,-9,-15,3,-1.9
CCc1cccc(C)c1NC(=O)C1CC(=O)N(C2CCCC2)C1 (stereo not given),7,3,6389,-8,.,10,6.2
CC(C)N(C(=O)CSc1nn2c(=O)c(C(C)(C)C)nnc2s1)c1ccccc1,9,6,2996,-2,9,-6,3.4
CC(NCc1ccc(Cl)cc1Cl)C(O)c1ccccc1 (stereo not given),-1,-5,7170,-70,12,-7,2.7
CC(=O)Nc1ccc(Oc2ccc(S(=O)(=O)N3CCCC3)cn2)cc1,1,2,3388,-9,.,3,5.2
Cc1nnc(SCc2nnc(-c3ccccc3Br)o2)s1,14,7,3898,-26,11,10,2.9
CC(=O)c1sc(NC(=O)CCS(=O)(=O)c2ccccc2)nc1C,14,-8,3887,-9,5,17,6.9
Nc1nc(-c2ccc(Br)s2)c(Br)s1,.,.,4945,-27,-3,57,1.5
CCOc1c2ccc(C(=O)NCc3cc(C(F)(F)F)cc(C(F)(F)F)c3)cc2nn1C,12,3,3841,-9,1,2,-6.5
ClC1(Cl)CC1CSc1nc2ccccc2[nH]1 (stereo not given),3,6,4428,-41,-4,-1,5.4
CCOC(=O)N1CCN(C(=O)COC(=O)CSc2cc(C)c(Br)cc2C)CC1,4,8,5008,-12,-5,5,6.3
Cc1csc(C2=C(O)CN(CCc3ccccc3)C2=N)n1,.,.,12294,-21,0,-5,4.5
Cc1ccc(C(=O)Oc2ccc3c(c2)ncn3C)cc1,-1,0,5812,-87,-11,-2,1.0
COc1ccc(-n2c(C(C)(C)C)csc2=Nc2c(C)n(C)n(-c3ccccc3)c2=O)cc1,-7,-3,1929,-22,-5,3,0.0
Cc1ccc2c(c1)c1nnc(SCC(=O)Nc3cccc(Cl)c3C)nc1n2CC(=O)O,0,1,2219,-42,-3,-3,2.3
CCC(=O)N(Cc1cc2c(C)cc(C)cc2[nH]c1=O)C1CCCCC1,6,5,3227,-1,4,-4,2.0
COc1ccc2cc[nH]c2c1,4,13,3269,-9,-3,4,8.5
CN1C(=O)/C(=C/C=C2\SCCN2C)N(C)C1=S,.,.,4680,-67,-1,.,.
Cn1c(C(=O)N2CCN(Cc3ccccc3)CC2)cc2c(=O)n(C)c3ccccc3c21,.,.,6049,-7,7,2,-2.0
Cc1nn(C)c(Oc2ccc(Cl)cc2)c1C=O,5,10,4348,-12,-3,5,3.3
COc1ccc(NC(=S)N2CCN(C(c3ccccc3)c3ccccc3)CC2)c(OC)c1,-5,11,2060,-8,3,-1,-1.9

The list goes on; it opens with the two that closed the last part.
Compound,Mtb hypoxia inh,Mtb hypoxia inh growth,Autofluor counter,PrP 5UTR inh,BJeLR lethal,Sa ugtP lethal,RN4220 kill
Cc1nn(C)c(Oc2ccc(Cl)cc2)c1C=O,5,10,4348,-12,-3,5,3.3
COc1ccc(NC(=S)N2CCN(C(c3ccccc3)c3ccccc3)CC2)c(OC)c1,-5,11,2060,-8,3,-1,-1.9
CCNC(=O)COc1cc(C)c(Br)c(C)c1,2,8,4106,-29,0,10,5.6
CCOc1ccc(N2CC(C(=O)Nc3cccc(S(=O)(=O)N4CCCCC4)c3)CC2=O)cc1 (stereo not given),1,1,4624,-34,-3,2,6.4
Cc1cc(NCc2ccccc2Cl)n2nnnc2n1,.,.,4621,-7,3,5,-1.9
Cc1ccc(C(=O)N/C(=C\c2ccc(C(C)C)cc2)C(=O)NCCCN2CCOCC2)cc1,4,12,7221,-4,0,2,7.0
CC(=O)Nc1ccc(S(=O)(=O)Nc2ccn(Cc3ccccc3Cl)n2)cc1,9,3,4753,-21,4,6,-4.1
CCCCN(C(=O)Cn1nnc2ccccc21)C(C(=O)NCCOC)c1ccccc1 (stereo not given),6,1,4058,1,-11,-1,0.6
Cc1cc(Cl)ccc1N=c1ssnc1Cl,6,8,2914,4,-4,-8,-5.8
CN(Cc1nc(Cc2ccccc2F)no1)Cc1cccc2ncccc12,-1,-3,2181,-12,18,-7,-3.6
CCCCCCCNC(=O)C1(CC2CC(c3ccc(Cl)cc3)=NO2)CCN(C(=O)Cc2ccc(F)cc2)CC1 (stereo not given),3,2,4202,-11,-13,4,-6.2
CCOCCn1c(=NC(=O)c2ccc(S(=O)(=O)N3CCOCC3)cc2)sc2cc(S(N)(=O)=O)ccc21,4,-1,5828,-16,-6,0,4.4
COc1ccc(OC)c(S(=O)(=O)Nc2ccccc2C)c1,7,8,11397,-7,2,-1,9.5
CC1(CC(=O)NN=Cc2ccc(-c3ccc(C(=O)O)cc3)o2)OCCO1,11,5,.,.,.,4,1.0
O=C(C1CCC1)N1CCN(S(=O)(=O)c2cccc(F)c2)CC1,14,9,?,-15,-1,9,4.7
Cc1ccc(S(=O)(=O)NCCC(=O)Oc2ccc3ccc(=O)oc3c2)cc1,-1,1,4627,-11,-6,7,2.8
CN(C)c1cccc(C(=O)OC(C(=O)Nc2ccc([N+](=O)[O-])cc2Br)c2ccccc2)c1 (stereo not given),8,3,2518,-7,-5,-1,4.4
Nc1nonc1C(=O)N/N=C/c1ccc([N+](=O)[O-])o1,.,.,1922,-4,-7,.,.
Cc1cccc(NC(=O)CN(C)S(=O)(=O)c2ccccc2)n1,.,.,4364,-24,-7,6,2.5
CCn1c(=N)n(CC(=O)c2cccc([N+](=O)[O-])c2)c2ccccc21,.,.,1889,-103,3,.,.
CCN1CCN(c2c(Cl)cccc2NC(=O)c2cc3ccccc3o2)CC1,5,-4,5809,-11,9,6,-3.9
CCN(CC)C(=O)[C@H]1C[C@H](CC(=O)NCCCN(C)C)C(=O)N2CCc3c([nH]c4ccc(Cl)cc34)[C@]12C,2,3,3134,-2,.,6,5.6
COc1ccc(C(=O)NC(=S)NNC(=O)c2cccc(C)c2)cc1,5,10,.,.,5,49,72
COc1cc2[nH]c(=O)c(C(=O)NCc3ccccc3Cl)c(O)c2cc1OC,7,5,3445,-41,-1,5,4.3
CCc1ccc(NC(=O)CSc2nccn(-c3ccc4c(c3)OCCO4)c2=O)cc1,-7,-17,?,-10,2,6,1.3
c1ccc(-c2noc(CSc3nnnn3C3CCCCC3)n2)cc1,3,10,20752*,-47,-17,-14,4.4
C#CCOCCOCCOCCNc1nc(N2CCN(C(=O)CCCCCCCCCCNC(=O)C(CCCCN)n3cc(CCO)nn3)CC2)nc(N2CCN(C(=O)CCCCCCCCCCNC(=O)C(CCCCN)n3cc(CCCC(=O)O)nn3)CC2)n1 (stereo not given),16,12,.,.,.,15,8.7

Other results.
Compound,Mtb hypoxia inh,Mtb hypoxia inh growth,Autofluor counter,PrP 5UTR inh,BJeLR lethal,Sa ugtP lethal,RN4220 kill
O=C(NO)c1cc(OCC(F)(F)F)ccc1OCC(F)(F)F,5,-4,?,-14,2,13,3.8
Cn1c(SCC(=O)NC(=O)c2cccc([N+](=O)[O-])c2)nnc1-c1ccc(F)cc1,-2,1,1971,-16,4,4,0.4
COc1ccc(Cl)cc1C(=O)NNC(=O)c1ccncc1,-2,6,4165,-3,2,-3,-0.1
O=C(CSc1nccc(=O)[nH]1)Nc1ccc2c(c1)OCCO2,2,5,3523,-42,4,8,0.0
Cc1ccc2c(c1)C1CN(C)CCC1N2C(=O)c1ccc(Br)o1 (stereo not given),17,10,3607,-29,3,6,-6.2
CC1CC(C)CN(S(=O)(=O)c2ccc(C(=O)N3CCN(c4ccccc4)CC3)cc2)C1 (stereo not given),3,5,9908,-22,-6,-5,4.4
CC(=O)C1(O)CCC2C3CCC4=C(Cl)C(=O)CCC4(C)C3CCC21C (stereo not given),8,9,3148,-9,.,5,7.0
COc1ccc(S(=O)(=O)N2CCCCC2C(=O)O)cc1OC (stereo not given),9,7,4132,-1,-5,6,3.3
O=C1CC(=O)N(Cc2ccccc2)C(=S)N1,1,-8,3692,-23,4,6,2.0
CCc1nc(N2CCN(C(=O)c3ccco3)CC2)c2oc3ccccc3c2n1,10,0,10301,-8,9,-4,24
N#C/C(=C\c1cccs1)Sc1nc2ccccc2s1,.,.,2894,-11,4,17,-0.2
COc1ccc(CN2CCN(C(=O)c3cccc4ccccc34)CC2)cc1OC,3,14,3410,-3,-1,8,5.5
CCOc1ccc(N(C)C(=O)CCc2nnc3ccc(N4CCC5(CC4)OCCO5)nn23)cc1,3,-5,3366,-7,5,0,1.9
CCOC(=O)C(=CC=C1Sc2ccccc2N1CC)C(C)=O,-28,-3,.,.,.,0,8.1
COc1cc(C2c3cc4c(cc3C(O)C3COC(=O)C23)OCO4)cc(OC)c1OC (stereo not given),-5,6,3311,40,.,-9,-1.2
Cc1ccc(N2CCN(C(=O)c3cc(C(=O)c4ccccc4C)c[nH]3)CC2)c(C)c1,17,7,4379,5,-6,-11,12
CCn1nc(C)c(CNC(=O)C2CCC(=O)N(CCc3ccc(Cl)cc3)C2)c1C (stereo not given),-15,-10,5230,-20,-3,-4,-4.0
Cn1cccc1-c1cc(C(=O)NN=Cc2ccc(F)cc2)[nH]n1,7,-1,.,.,.,-7,-0.4
CCOC(=O)c1ccc(NC(=O)Cn2ccc([N+](=O)[O-])n2)cc1,0,11,4779,-23,2,5,1.7
COc1cc(OC)nc(N/N=C(\c2ccccc2)c2ccncc2)n1,.,.,8473,-19,1,.,.
CC1CCCN(CCCNC(=O)C2CCCN(c3ncnc4c3nc3n4CCCCC3)C2)C1 (stereo not given),5,1,6457,-20,14,11,4.7
Cc1ccc(NC2CCCN(C(=O)c3cccnc3)C2)cc1C (stereo not given),2,7,5262,-13,-9,7,4.2
CCNC(=S)NC1CC2CCC(C1)N2Cc1ccccc1 (stereo not given),-1,-1,8020,-17,22,5,7.8
O=C(NCCOc1ccccc1)c1ccccc1Cl,20,4,3866,-12,2,19,5.2
O=C(COC(=O)C1(c2ccc(F)cc2)CCCC1)NCc1ccco1,-2,10,4182,-18,5,-5,13

Other records
Compound,Mtb hypoxia inh,Mtb hypoxia inh growth,Autofluor counter,PrP 5UTR inh,BJeLR lethal,Sa ugtP lethal,RN4220 kill
Cc1c(CN2CCc3c([nH]c4ccccc34)C2C2CCCCC2)cnn1C (stereo not given),3,5,2400,15,-4,0,7.1
C=CCOc1cccc(C2C(C(=O)c3ccco3)=C(O)C(=O)N2Cc2cccnc2)c1 (stereo not given),2,14,5654,4,1,7,0.3
O=C(CCc1nnc2n(CCc3ccccc3)c(=O)c3ccccc3n12)NCCCN1CCCCC1,-4,-7,.,-26,1,14,4.0
CCN(CC)C(=O)CN1C(=O)C2(OCC(C)(c3ccccc3)CO2)c2ccccc21 (stereo not given),5,4,7930,1,5,5,2.8
O=C(O)C(NC(=O)c1ccccc1)=C(Cl)Cl,4,1,9871,-6,11,6,5.5
Cc1cc(/C=C2\SC(N)=NC2=O)c(C)n1-c1ccc(F)cc1,.,.,3558,-35,4,.,.
COc1ccc(C(=O)N2CCC3(CC2)NCCc2[nH]cnc23)cc1,-6,-3,4238,-2,-2,0,6.2
COc1ccccc1NC(=O)CCC(=O)OCc1ccc(Cl)cc1,11,7,2209,-18,-5,6,-1.6
Fc1ccccc1COc1ccccc1C=NNc1nc(N2CCCC2)nc(N2CCCC2)n1,-1,0,.,.,.,3,1.0
